Mtb hypoxia inh: reduces hypoxia-regulated biosensor signal in M. tuberculosis. M. tuberculosis hypoxia-regulated fluorescent reporter, fluorescence. fluorescence inhibition, % (no concentration beside the values). 0.1% of 300,000 active. AID 1159583;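 active means 35 to 45% if threefold the growth effect, above 45% if 1.5-fold the growth effect; inactive means the rest, general growth blockers included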;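 further: wells of about 50 µL received 100 nL stock; 0% = vehicle wells and 100% = reference inhibitor wells; whole bacteria with a GFP reporter of the hypoxia response; strong numbers were not always called active; many hits fall short of the cut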
Sa RN4220 lethal: kills Staphylococcus aureus RN4220; inhibition, % (concentration not given with the values); S. aureus RN4220 growth, OD600, 16 h; AID 1259311; 0.33% of 330,000 active;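 active means z-score of -3 or lower and OD600 up to 0.18 on both plates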;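 further: plate controls were untreated cells for no effect and reference antibiotic for full effect; stock transfer was 100 nL into about 80 µL; one replicate is shown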
PrP 5UTR inh: inhibition of PrP 5' UTR reporter expression | cell-based PrP 5' UTR mRNA reporter, plate reader | inhibition, % (no concentration beside the values) | 0.35% of 340,000 active | AID 488862;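 active means every replicate at 50% or more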;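 further: 0 = median of the neutral control wells; tested in H4 reporter cells; numbers are from one replicate; inactives centre near -14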
ugtP null kill: kills S. aureus RN4220 lacking UgtP | S. aureus RN4220 ugtP deletion, OD600 growth, 16 h; some inactives read as strong as hits | growth inhibition, % (test concentration not listed) | 0.54% of 330,000 active | AID 1259309;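 active means z-score under -3 and OD600 up to 0.15 on both plates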;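 further: plate controls were untreated wells for no effect and antibiotic for full effect; wells of about 80 µL received 100 nL stock; the first replicate is given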
Autofluor counter: flagged as autofluorescent in microsphere protease counterscreen | 3.1% of 360,000 active | compound autofluorescence counterscreen, microsphere flow cytometry; hits give high values | fluorescence intensity (test concentration not listed);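 active means at least 3 SD above the mean of all compounds, about 16000 in these data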;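 further: 100 nL of 1 mM stock went into each well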
BJeLR lethal: BJeLR cell viability loss; BJeLR (HRASV12) viability, CellTiter-Glo ATP luminescence, 48 h; reference of the scale not given here; inhibition, % (test concentration not listed); 0.17% of 300,000 active; AID 1554;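 active means replicate mean above 50%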;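 further: 50 nL library stock added to about 25 µL; numbers are from one replicate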
Mtb hypoxia inh growth: second read-out of Mtb hypoxia inh, no call of its own (marks repeat the call); growth inhibition, %; measured here: M. tuberculosis growth (absorbance);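 0% = vehicle and 100% = reference antibiotic; read after six days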
The depositor's hits bear a star; / = not tested or not shown.

nr	Molecule	Mtb hypoxia inh	Mtb hypoxia inh growth	Sa RN4220 lethal	PrP 5UTR inh
1	CCOCCOCCC(C(=O)O)P(=O)(c1ccccc1)c1ccccc1 (stereo not given)	2.3	16.2	1.2	-7.1
2	O=C(Nc1ccc(Cl)cc1)NN1CC(=O)N(c2cccc(C(F)(F)F)c2)CC1=O	-6.1	10.9	0.9	-4.4
3	COc1cc(/C=C(\C#N)C(=O)N2CCCCC2)ccc1O	10.2	10.9	0.2	-13.0
4	COc1ccc(NC(=O)C2=NN(c3ccccc3)C(=O)CC2)cn1	-3.1	5.8	0.3	-8.6
5	O=C(CCN1C(=O)/C(=C/c2ccccc2Cl)SC1=S)NN1CCOCC1	0.0	0.1	-0.3	-33.2
6	CCNC(=S)Nc1ccc(C)c(Cl)c1	17.0	7.4	3.3	-14.9
7	O=C(Cc1c(O)c2ccccc2[nH]c1=O)NCc1cccc(F)c1	5.1	9.9	0.9	-20.9
8	COc1ccc(C(=O)Nc2ccc(S(=O)(=O)N3CCOCC3)cc2)cc1[N+](=O)[O-]	13.1	3.7	2.4	-23.7

nr	ugtP null kill	Autofluor counter	BJeLR lethal
1	-1.7	4276	-1.0
2	9.0	5314	6.1
3	6.1	3693	3.8
4	2.4	3283	/
5	-0.5	5110	-2.7
6	7.1	2033	-1.3
7	8.7	8096	7.0
8	8.5	4196	-7.3

Next part:
nr	Molecule	Mtb hypoxia inh	Mtb hypoxia inh growth	Sa RN4220 lethal	PrP 5UTR inh
9	O=C(NCCc1ccc(Cl)cc1)c1cccc(NC2=NC3CS(=O)(=O)CC3S2)c1 (stereo not given)	5.3	-0.6	6.4	-8.2
10	CN(C)CCCn1c(=S)[nH]c2sc3c(c2c1=O)CCCC3	5.5	2.6	-3.2	-21.5
11	Cc1nc([N+](=O)[O-])c(N2CCOCC2)n1Cc1ccccc1	-1.0	7.8	1.6	-1.5
12	COCCNC(=O)c1onc(CSc2ccccc2F)c1C(=O)O	-1.3	5.4	2.6	-33.5
13	COc1cc(-n2c(=S)[nH]c3ccccc3c2=O)c(Cl)cc1Cl	/	/	-5.1	-17.6
14	COc1ccc2c(c1)c(C(=O)N/N=C/c1ccc(OC)c(OC)c1)c(C)n2C	/	/	/	6.6
15	O=C(O)c1ccc(NC(=S)NC(=O)c2ccc(-c3ccc(Br)cc3)o2)cc1	/	/	/	-10.4
16	COc1ccc2c(c1)c(C(=O)NN=Cc1cccs1)c(C)n2C	1.3	12.2	3.3	/

nr	ugtP null kill	Autofluor counter	BJeLR lethal
9	3.7	6479	-11.3
10	8.1	5354	0.5
11	7.7	/	-2.7
12	1.0	4193	-10.1
13	-58.4	2469	-3.0
14	/	2458	-17.6
15	/	5798	-3.7
16	2.4	/	/

Looked up above:
PrP 5UTR inh, O=C(O)c1ccc(NC(=S)NC(=O)c2ccc(-c3ccc(Br)cc3)o2)cc1 reads -10.4
ugtP null kill, COc1cc(-n2c(=S)[nH]c3ccccc3c2=O)c(Cl)cc1Cl reads -58.4
Mtb hypoxia inh growth, CN(C)CCCn1c(=S)[nH]c2sc3c(c2c1=O)CCCC3 reads 2.6

6 entries from above, in transposed form:
9. O=C(NCCc1ccc(Cl)cc1)c1cccc(NC2=NC3CS(=O)(=O)CC3S2)c1 (stereo not given)
10. CN(C)CCCn1c(=S)[nH]c2sc3c(c2c1=O)CCCC3
11. Cc1nc([N+](=O)[O-])c(N2CCOCC2)n1Cc1ccccc1
12. COCCNC(=O)c1onc(CSc2ccccc2F)c1C(=O)O
13. COc1cc(-n2c(=S)[nH]c3ccccc3c2=O)c(Cl)cc1Cl
14. COc1ccc2c(c1)c(C(=O)N/N=C/c1ccc(OC)c(OC)c1)c(C)n2C
entry no.	9	10	11	12	13	14
Mtb hypoxia inh	5.3	5.5	-1.0	-1.3	/	/
Mtb hypoxia inh growth	-0.6	2.6	7.8	5.4	/	/
Sa RN4220 lethal	6.4	-3.2	1.6	2.6	-5.1	/
PrP 5UTR inh	-8.2	-21.5	-1.5	-33.5	-17.6	6.6
ugtP null kill	3.7	8.1	7.7	1.0	-58.4	/
Autofluor counter	6479	5354	/	4193	2469	2458
BJeLR lethal	-11.3	0.5	-2.7	-10.1	-3.0	-17.6

Remaining list, next part:
nr	Molecule	Mtb hypoxia inh	Mtb hypoxia inh growth	Sa RN4220 lethal	PrP 5UTR inh
17	Cc1cc(Nc2ccc([N+](=O)[O-])cc2)nc2ccccc12	13.4	2.9	-2.4	-23.3
18	COc1cccc(-c2[nH]nc3c2C(c2ccoc2)C(C#N)=C(N)O3)c1 (stereo not given)	3.9	8.1	1.9	-10.4
19	CN1CCCC(OC(=O)c2ccc(C(C)(C)C)cc2)C1 (stereo not given)	3.5	6.6	0.2	-21.8
20	CCC(C)(C)C1CCC(=NNC(=S)Nc2ccccc2)CC1 (stereo not given)	3.4	0.6	18.4	-1.2
21	COC(=O)CSc1nnc(-c2ccc(S(=O)(=O)NCc3ccccc3Cl)cc2)o1	-2.5	11.1	5.6	9.8
22	CC(=O)OCCN(CCOC(C)=O)c1c(C)[nH]c(=O)[nH]c1=O	1.7	-0.1	0.8	-41.2
23	CCOC(=O)N1CCC(NC(=O)c2cc(C(=O)Nc3ccc(OCC)cc3)ccc2CO)CC1	/	/	2.8	-4.7
24	CCOC(=O)c1cnn(-c2nc(-c3ccccc3)nc3c2COC(C)(C)C3)c1N	/	/	0.3	-10.4

nr	ugtP null kill	Autofluor counter	BJeLR lethal
17	-5.1	2667	3.5
18	-1.3	21204*	2.0
19	7.6	3266	5.0
20	7.3	5228	5.8
21	-6.3	21867*	6.9
22	5.4	10959	1.9
23	3.2	3294	4.3
24	7.6	4388	-7.2

(listing goes on)
nr	Molecule	Mtb hypoxia inh	Mtb hypoxia inh growth	Sa RN4220 lethal	PrP 5UTR inh
25	CCCc1ncc(C(O)(c2ccccc2)c2ccccc2)n1C	0.0	9.8	2.8	-36.6
26	CC(C)C(OC(=O)c1nsc(Cl)c1Cl)C(=O)NCc1ccccc1 (stereo not given)	6.1	4.1	4.5	-25.7
27	COc1ccc(/C=C2\Sc3ccc(C(=O)NCC4CCCO4)cc3N(C)C2=O)cc1 (stereo not given)	10.7	6.6	0.9	-9.9
28	COc1ccc(CC(=O)Nc2cc(C)ccn2)cc1OC	-0.4	8.3	2.4	-9.6
29	CCCOC(=O)Nc1cccc(C(C)=O)c1	7.8	6.3	5.5	-19.0
30	COc1cc(OC)cc(C(=O)O/N=C(\N)c2ccncc2)c1	2.8	1.0	3.6	-28.7
31	CCOc1cc(/C=N/NC(=O)C(=O)N2CCCC2)ccc1O	/	/	/	-17.9
32	COc1ccc(C2C(C(=O)c3ccco3)=C(O)C(=O)N2c2nnc(C)s2)cc1OC (stereo not given)	6.2	-7.8	2.3	-24.0

nr	ugtP null kill	Autofluor counter	BJeLR lethal
25	4.8	4266	-3.4
26	12.0	5540	-0.7
27	-9.6	5556	-4.5
28	8.1	3861	10.9
29	2.8	4231	15.5
30	0.8	8680	-1.7
31	/	4250	1.1
32	0.9	3797	3.2

Next section:
nr	Molecule	Mtb hypoxia inh	Mtb hypoxia inh growth	Sa RN4220 lethal	PrP 5UTR inh
33	Cc1cccc(C(=O)NNC(=O)c2ccccc2C)c1	3.2	11.4	2.6	-22.2
34	COCC(=O)NCc1nc2ccccc2[nH]1	8.5	9.3	2.6	-13.6
35	Cc1ccccc1N(C(=O)Cc1cccs1)C(C(=O)NCC1CCCO1)c1cccnc1 (stereo not given)	-5.6	-10.1	6.0	-46.1
36	CS(=O)(=O)N(CC(=O)Nc1ccccc1C(=O)N1CCOCC1)c1cccc([N+](=O)[O-])c1	13.4	1.5	3.0	-18.6
37	Cc1ccc(S(=O)(=O)N2CCCCC2C)cc1[N+](=O)[O-] (stereo not given)	7.6	6.6	8.2	-3.7
38	O=C(NCc1ccc2c(c1)OCO2)c1ccc(Cl)s1	/	/	10.4	-18.7
39	O=C(Cc1c(F)cccc1Cl)N1CCCC1	9.8	1.0	5.9	-22.0
40	CC1CCCCN1C(=O)C12CCC(C)(/C(=N/O)C1)C2(C)C (stereo not given)	/	/	/	-25.5

nr	ugtP null kill	Autofluor counter	BJeLR lethal
33	0.2	2540	7.5
34	5.0	8223	0.5
35	-5.0	8168	1.1
36	1.5	7323	-3.7
37	6.7	3249	-4.4
38	9.2	3619	-4.1
39	3.1	9128	-6.0
40	/	14705	3.4

Further entries
nr	Molecule	Mtb hypoxia inh	Mtb hypoxia inh growth	Sa RN4220 lethal	PrP 5UTR inh
41	O=C(C=Cc1ccc(Cl)cc1)c1ccc([N+](=O)[O-])o1	/	/	79.0	/
42	O=C(Cc1ccc(F)cc1)OCC(=O)N1CCN(S(=O)(=O)c2ccc(Cl)cc2)CC1	-2.5	-3.0	-0.1	1.6
43	CC(C(=O)N(C)C1CCS(=O)(=O)C1)N1C(=O)/C(=C/c2ccc(F)cc2)SC1=S (stereo not given)	4.3	6.6	2.0	-7.4
44	CN1C[N+]([O-])=C(c2ccccc2)C1(C)C	1.6	1.3	6.8	-25.4
45	O=C(Nc1ccccc1Cl)Nc1ccnn1C1CCN(C(=O)c2cscn2)CC1	-8.4	-5.6	3.1	-3.8
46	CCOc1ccc(N2C(=O)CNC2=S)cc1	15.0	10.3	18.7	2.3
47	CN(C)C=NC1=C(C#N)C(c2ccc(Br)cc2)c2ccc3ccccc3c2O1 (stereo not given)	13.5	0.4	3.8	/
48	CC(C)(C)c1nnc(NC(=O)C2CC(=O)N(CCc3ccc(F)cc3)C2)s1 (stereo not given)	10.4	-6.1	5.5	-23.1
49	CCCNC(=O)CSc1nc(Cc2ccccc2)nc2ccccc12	6.3	8.0	2.9	-6.7
50	CC(=O)OC[C@H]1O[C@@H](O[C@H]2C[C@]3(C)C(C[C@@H](O)C4C([C@]5(C)CC[C@@H](C(C)(C)O)O5)CC[C@]43C)[C@@]3(C)CC[C@H](O)C(C)(C)C23)[C@H](O[C@@H]2O[C@@H](C)[C@H](O)[C@@H](O)[C@H]2O)[C@@H](O)[C@@H]1O (stereo not given in full)	0.2	7.5	-12.3	-15.3

nr	ugtP null kill	Autofluor counter	BJeLR lethal
41	99.1*	/	/
42	0.7	/	-0.2
43	3.3	5523	1.1
44	-1.6	13240	6.9
45	4.1	/	4.2
46	3.2	4463	-6.3
47	-0.6	/	/
48	4.7	3888	5.5
49	1.0	2992	-5.4
50	-3.9	4199	/

Source: PubChem (several laboratories)
